Ecoli growth – E. coli growth inhibition, primary screen, OD600; Escherichia coli growth, 23 h; active compounds read low; 330,000 tested, 0.21% active; OD600 absorbance (test concentration not listed);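 active = OD600 absorbance below the run mean of sample wells minus 3.6 SD, in any replicate, cut at about 0.56 in these data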;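 also: stock transfer was 300 nL into about 60 µL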
FGF22 binding – binders of human FGF22 protein, primary screen, FGF22 synaptogenesis inhibitor project, biophysical, thermal shift, single point | Fibroblast growth factor 22 (Homo sapiens), Q9HCT0 | recombinant FGF22 thermal shift, SYPRO orange fluorescence; percent of sucrose octasulfate shift, DMSO zero | calls only at 9.99 µM | 340,000 tested, 1.5% active | AID 651658, 2012;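 active = melting point raised past a set limit in the mean and every replicate; inconclusive = no clear call; three in four hits are not shown here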
Target sequence (Q9HCT0 whole entry, looked up): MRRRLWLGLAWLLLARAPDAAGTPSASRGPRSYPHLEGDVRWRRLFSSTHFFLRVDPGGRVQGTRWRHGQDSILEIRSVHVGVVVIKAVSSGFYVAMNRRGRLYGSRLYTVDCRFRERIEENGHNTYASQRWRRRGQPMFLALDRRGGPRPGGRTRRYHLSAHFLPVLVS
rRNA inh HTS – reduced GFP signal of wild-type E. coli, primary screen, bacterial rRNA inhibitor project, GFP/RFP fluorescence, OD600, single point; 350,000 tested, 1.6% active; GFP signal change (wild-type ribosome), % (no concentration beside the values); E. coli WT GFP vs humanized-ribosome RFP mutants, 24 h; active compounds read low; DMSO median 0, no signal -100;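 active = significant combined selectivity score with lowered wild-type GFP, culture density cut under 30%, mutant RFP and density less affected; inactive = any of these conditions unmet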; also: one replicate is shown; some compounds called inactive have numbers as strong as hits
HNF4A DNA FP – change in binding of human HNF4A to DNA, primary screen, biochemical, fluorescence polarization, FITC-DNA; Hepatocyte nuclear factor 4-alpha (Homo sapiens), P41235; 360,000 tested, 0.3% active; 1 h; activity change, % at 10 µM; in the data active = activity change above about 30%, passing the limit was not always enough;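 also: controls were the assay level and a saturating level of protein; the project sought stronger binding though the title names inhibitors; some compounds called inactive have numbers as strong as hits; positive values seem to mean higher polarization but the record does not say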
Target sequence (P41235 whole entry, looked up): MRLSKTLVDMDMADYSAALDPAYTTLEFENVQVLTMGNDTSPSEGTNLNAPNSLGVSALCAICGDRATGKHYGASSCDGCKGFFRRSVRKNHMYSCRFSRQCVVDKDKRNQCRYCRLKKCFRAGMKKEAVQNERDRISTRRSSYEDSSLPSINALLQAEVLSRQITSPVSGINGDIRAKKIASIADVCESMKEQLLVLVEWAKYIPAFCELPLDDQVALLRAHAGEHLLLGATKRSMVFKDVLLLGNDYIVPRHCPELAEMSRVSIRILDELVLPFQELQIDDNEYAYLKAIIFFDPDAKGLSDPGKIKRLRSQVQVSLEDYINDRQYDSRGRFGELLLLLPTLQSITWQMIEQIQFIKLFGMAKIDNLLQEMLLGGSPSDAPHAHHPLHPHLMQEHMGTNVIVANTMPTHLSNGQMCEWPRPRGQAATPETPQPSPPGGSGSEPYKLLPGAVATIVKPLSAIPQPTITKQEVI
UCH37 DUB inh – inhibitors of human UCH37 deubiquitinase, primary screen, biochemical, Ub-AMC cleavage, fluorescence | purified proteasome/UCH37 | inhibition, % (test concentration not listed) | 330,000 tested, 0.33% active;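 active = mean of two replicates above 20%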;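 also: 0% = compound-free wells with enzyme and 100% = wells lacking proteasome; stock transfer was 100 nL into about 20 µL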
Target sequence (Q9Y5K5 whole entry, looked up): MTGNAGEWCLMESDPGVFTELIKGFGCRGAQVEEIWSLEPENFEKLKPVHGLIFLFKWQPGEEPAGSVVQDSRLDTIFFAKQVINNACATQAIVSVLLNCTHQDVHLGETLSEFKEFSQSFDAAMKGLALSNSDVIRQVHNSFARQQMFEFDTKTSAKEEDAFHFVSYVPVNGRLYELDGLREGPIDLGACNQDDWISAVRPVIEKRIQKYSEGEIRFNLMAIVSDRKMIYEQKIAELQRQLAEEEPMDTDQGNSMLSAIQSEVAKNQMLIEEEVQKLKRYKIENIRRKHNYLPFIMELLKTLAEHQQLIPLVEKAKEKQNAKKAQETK
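Material: Human UCH37 enzyme supplied as purified proteasome complex | Schedule: 30 min preincubation with enzyme, 25 min cleavage at room temperature | Detection: AMC fluorescence 355/460 nm | Measure: % inhibition of Ub-AMC cleavage fluorescence | Controls: Wells without proteasome as full block, compound-free enzyme plus substrate as uninhibited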
ALR H2O2 inh – inhibitors of human ALR sulfhydryl oxidase, primary screen, biochemical, H2O2 detection, HRP-luminol luminescence, single point; purified ALR, DTT oxidation; inhibition, % (no concentration beside the values); 290,000 tested, 3.8% active; AID 485317, 2010;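 active = mean and each replicate at 75% or more; inconclusive = only one of the two met; inactive = neither met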;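 also: stock transfer was 7.5 nL into about 7.5 µL; 0% = neutral wells and 100% = wells with inactivated enzyme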
Beta2AR agonist – beta2AR agonists driving receptor internalization, primary screen, cell-based, FAP fluorogen, flow cytometry; AID 504454, 2011; response, % (no concentration beside the values); 340,000 tested, 0.43% active; Am2.2-beta2AR cells; reference of the scale not given here; Beta-2 adrenergic receptor (Homo sapiens), P07550;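 active = response above a set limit, near 3 SD of response in nonfluorescent compounds, cut at about 42% in these data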;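 also: stock transfer was 100 nL into about 11 µL; a reference agonist was the positive control; negative values mostly stem from fluorescent compounds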
rRNA inh HTS OD600 – second read-out of rRNA inh HTS, no call of its own (marks repeat the call); OD600 change, %; measured here: OD600 growth;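 optical density of the mix in the first replicate; 0 = DMSO median and -100 = no signal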
rRNA inh HTS RFP – also measured in rRNA inh HTS; calls as there; RFP signal change, %; measured here: RFP humanized mutant strains;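 first replicate; 0 = DMSO median and -100 = no signal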
* hit, by the source's call; i = inactive; ? = inconclusive; nt = not tested or not shown; & = joins results of further samples. An excerpt, so the mix of outcomes need not match the whole.

SMILES	Ecoli growth	FGF22 binding	rRNA inh HTS	rRNA inh HTS OD600	rRNA inh HTS RFP	HNF4A DNA FP	UCH37 DUB inh	ALR H2O2 inh	Beta2AR agonist
COCCN(CC1CCCN(C2Cc3ccccc3C2)C1)C(=O)CCC(F)(F)F (stereo not drawn)	0.68	i	27	13	3.2	-0.6	1.3	-2	-4
O=C1NC(=S)N(C(=O)c2ccc(F)cc2)/C1=C/c1ccccc1	0.69	i	-16	-1	-3.8	78*	3.4	7	-6
COc1ccccc1CC(=O)N1CCN(c2ccccn2)CC1	0.68	nt	nt	nt	nt	-2.3	-1.5	2	30
CCOC(=O)C1CCCN(c2c(NCCCN(C)c3ccccc3)c(=O)c2=O)C1 (stereo not drawn)	0.69	i	6	0	-1.2	-0.4	4.8	99*	3
Cn1c2ccccc2n2c(=O)cc(-c3ccccc3)c(C#N)c12	0.66	i	-3	5	1.7	-7.0	-77	nt	1
O=C1CC(C(=O)Nc2ccc(Br)cc2)S/C(=N\N=C\c2ccco2)N1 (stereo not drawn)	nt	i	5	1	2.5	-1.4	nt	-2	5
CN(CC(=O)Nc1cccc(C#N)c1)Cc1ccc(Cl)cc1	0.67	i	-26	-33	-3.7	4.0	1.2	-5	7
Cc1ccc(S(=O)(=O)N2CCN(C(=O)COC(=O)/C=C/c3ccccc3[N+](=O)[O-])CC2)c(C)c1	0.7	i	-1	-1	2.5	-0.8	7.5	-3	0
Cn1c(N)c(C#N)c(C#N)c1-c1ccccc1	0.65	nt	nt	nt	nt	0.7	-4.6	41	-4
CCOC(=O)CC1ON(C)C(=O)N1c1ccc([N+](=O)[O-])cc1 (stereo not drawn)	0.67	nt	nt	nt	nt	0.3	8.5	-3	7
O=c1/c(=C/c2ccco2)sc2nc(-c3ccccc3Br)nn12	nt	nt	nt	nt	nt	5.0	nt	-20	10
Cc1cc(C)n2nc(-c3ccco3)nc2n1	0.67	i	1	-1	-1.1	5.3	-37	-3	-1
COc1ccc(C/C(N)=N/OC(=O)c2ccc(Cl)cc2)cc1	nt	i	25	15	1.2	4.6	1.2	-1	1
FC(F)Oc1ccc(NC(=S)Nc2ccc3cn[nH]c3c2)cc1	0.63	i	-25*	-17*	-0.8*	-0.7	-2.6	2	-6
CCCCn1c(SCC(=O)NC(=O)Cc2ccccc2)nc2ccccc2c1=O	0.68	i	3	2	-3.4	0.5	0.5	-3	0
Cc1cc(C)c2c(=O)n3c(nc2c1)C(CC(C)C)NC(=O)c1cccnc1-3 (stereo not drawn)	nt	i	-10	-28	-2.1	0.3	nt	nt	nt
CCN1CCN(c2nc3c(c(=O)[nH]c(=O)n3C)n2CCCc2ccccc2)CC1	0.68	i	14	12	2.5	-2.9	0.6	0	18
O=C(N/N=C/c1cccs1)c1c[nH]c2ccccc12	nt	nt	nt	nt	nt	-1.4	nt	-3	0
C=CCn1c(=O)c2ccccc2n2c(SCC(=O)Nc3sc(C)c(CC)c3C(=O)OCC)nnc12	0.72	nt	nt	nt	nt	3.9	-1.3	-7	-14
CC1CC(=O)c2ccccc2C1C (stereo not drawn)	0.66	i	4	10	-0.6	2.4	0.5	nt	7
CCCC(=O)OCC(=O)Nc1cc(Cl)ccc1[N+](=O)[O-]	0.69	i	1	-6	-2.7	-0.3	5.4	-6	-2
Cc1ccc(C)c(N2CCN(C(=O)C(Cc3ccccc3)n3cccc3)CC2)c1 (stereo not drawn)	0.75	i	6	3	4.7	-6.5	3.6	8	15
CCOC(=O)CSc1nc2sc3c(c2c(=O)n1-c1ccc(OC)cc1)CCN(C)C3	0.67	i	2	11	0.0	7.1	-4.6	99*	-5
CN(CC(=O)Nc1ccc(Cl)c(C(F)(F)F)c1)C(=O)/C=C/c1ccco1	0.71	nt	nt	nt	nt	-1.3	0.7	-1	-11
C[C@H](NC(=O)c1nc[nH]c1C(=O)NC(c1ccccc1)c1ccccc1)C(=O)OCc1ccccc1	nt	i	3	-3	7.9	2.4	3.5	nt	4
CN(C)C(=O)CCSc1nnc(-c2ccco2)o1	0.7	i	19	8	11	-3.6	-0.4	1	6
CCN(CC)CC(=O)c1ccc(-c2ccccc2)cc1	0.72	nt	nt	nt	nt	0.4	-1.1	99*	1
CC(C)NC(=O)C12CC3CC(C1)CC(n1cnc(Cl)n1)(C3)C2	0.7	nt	nt	nt	nt	2.4	2.1	-1	-5
Cc1ccc(O)c(CCc2ccc(O)cc2)n1	0.66	i	8	8	1.2	-1.2	-2.8	94*	-14
O=C(NCCN1CCNC1=O)C1CCC(=O)N(CCc2ccccc2)C1 (stereo not drawn)	0.7	i	5	16	0.0	2.3	5.4	2	2
CCCN(CC1CC1)C(=S)NC(=O)c1ccccc1Br	0.69	i	-22*	-12*	-8.9*	1.2	0.4	-2	0
Cc1cc(Nc2ccc(Cl)cc2)nc(NCc2ccccc2)n1	0.41*	nt	nt	nt	nt	-1.0	-32	34	37
O=[N+]([O-])c1ccccc1S(=O)(=O)N1CCN(Cc2ccc3c(c2)OCO3)CC1	0.71	i	-24	-22	-4.2	-2.5	4.0	2	2
CCCCCC(=O)NC(=S)Nc1cccc(-c2nc3ncccc3o2)c1	0.72	i	-2	3	0.4	-1.1	5.9	nt	1
CCOC(=O)/C=C1\CN(C(C)c2ccccc2)S(=O)(=O)c2ccccc21 (stereo not drawn)	nt	i	-15	-22	-15	-1.0	4.6	nt	-2
CCCCCCC(=O)NC(Nc1ccc(S(N)(=O)=O)cc1)C(Cl)(Cl)Cl (stereo not drawn)	0.69	nt	nt	nt	nt	2.9	-1.2	-9	3
CC[n+]1c(/C=C/c2ccc(OC(C)=O)c(OC)c2)ccc2ccccc21	0.63	i	-14*	9.8*	1.0*	1.1	5.0	57	0
CC(C)Cc1cc(C(=O)N2CCN(C(c3ccccc3)c3ccccc3)CC2)no1	0.77	i	4	8	0.8	1.0	3.0	-15	2
Cn1c(=O)[nH]c(=O)c2c1nc(N1CCCCC1)n2C/C=N/NC(=O)c1cc(Br)ccc1O	nt	i	-4	-9	6.0	-2.2	nt	23	-4
O=C(NC1CCN(S(=O)(=O)c2ccccc2F)CC1)c1cccnc1	0.63	i	3	10	-0.6	4.5	0.1	nt	1

Copied from above, 5 compounds:
SMILES	Ecoli growth	FGF22 binding	rRNA inh HTS	rRNA inh HTS OD600	rRNA inh HTS RFP	HNF4A DNA FP	UCH37 DUB inh	ALR H2O2 inh	Beta2AR agonist
Cc1ccc(O)c(CCc2ccc(O)cc2)n1	0.66	i	8	8	1.2	-1.2	-2.8	94*	-14
O=C(NCCN1CCNC1=O)C1CCC(=O)N(CCc2ccccc2)C1 (stereo not drawn)	0.7	i	5	16	0.0	2.3	5.4	2	2
CCCN(CC1CC1)C(=S)NC(=O)c1ccccc1Br	0.69	i	-22*	-12*	-8.9*	1.2	0.4	-2	0
Cc1cc(Nc2ccc(Cl)cc2)nc(NCc2ccccc2)n1	0.41*	nt	nt	nt	nt	-1.0	-32	34	37
O=[N+]([O-])c1ccccc1S(=O)(=O)N1CCN(Cc2ccc3c(c2)OCO3)CC1	0.71	i	-24	-22	-4.2	-2.5	4.0	2	2

The list continues.
SMILES	Ecoli growth	FGF22 binding	rRNA inh HTS	rRNA inh HTS OD600	rRNA inh HTS RFP	HNF4A DNA FP	UCH37 DUB inh	ALR H2O2 inh	Beta2AR agonist
O=C(Nc1ccc(S(=O)(=O)N2CCC(C(=O)NC3CCCCC3)CC2)cc1)c1ccco1	0.73	nt	nt	nt	nt	-3.4	-0.8	1	-7
CC1CCN(C(=O)CN2C(=O)C(=O)N(C)C2=O)c2ccccc2S1 (stereo not drawn)	0.68	i	8	17	-0.2	-4.8	-2.1	nt	3
Cn1c(-c2ccccc2)cc(=O)cc1-c1ccccc1	nt	i	5	7	-4.9	0.8	nt	nt	nt
COC(=O)c1ccc(Cn2c(C)c(C(=O)NCc3cccc([N+](=O)[O-])c3)sc2=O)o1	nt	i	6	10	0.5	1.6	nt	nt	nt
CCc1c(C)nc(N)n2c(SCC(=O)N3CCCc4ccccc43)nnc12	0.67	nt	nt	nt	nt	-1.2	6.0	-4	-2
CCCCn1c(N)c(N(CC(C)C)C(=O)c2ccc(S(=O)(=O)N3CCCCCC3)cc2)c(=O)[nH]c1=O	nt	i	9	19	0.1	-3.6	nt	nt	-9
C[C@H](CCC(=O)O)[C@H]1CC[C@H]2[C@@H]3[C@H](O)C[C@@H]4C[C@H](O)CC[C@]4(C)[C@H]3C[C@H](O)[C@]12C	0.75	i	7&9	10&-1	-1.3&16	nt	6.0&2.9&5.0	-13&-1	3&-10&-6
CC(C(=O)c1ccccc1)[n+]1cccc(C(N)=O)c1 (stereo not drawn)	0.61	i	7	8	4.2	-1.1	0.6	-10	2
CC(Oc1cccc(Cl)c1)C(=O)Nc1ccc(N2CCOCC2)cc1N1CCOCC1 (stereo not drawn)	0.62	i	-11	-23	-0.3	-2.1	2.2	98*	11
COc1ccccc1N1CCN(C(=O)c2noc(C)c2[N+](=O)[O-])CC1	0.64	i	8	1	-2.0	3.1	2.0	-18	-2
COc1ccc(C(=S)Nc2ccccc2)cc1	0.75	nt	nt	nt	nt	1.3	-3.2	-3	-7
O=S(=O)(Nc1nc2ccccc2nc1Cl)c1ccc2ccccc2c1	0.69	nt	nt	nt	nt	3.4	-0.8	nt	5
COc1ccccc1NC(=O)COC(=O)Cc1ccc(S(=O)(=O)N2CCCCC2)s1	0.68	i	-2	-7	5.0	4.0	2.2	-25	5
Clc1nc(CN2CCCCC2)nc2sc3c(c12)CCC3	0.67	i	-6	-8	-0.3	1.7	-6.7	19	5
CC(C)c1ccc(NC(=O)Nc2nc(CN)cs2)cc1	nt	i	-1	-16	-2.6	2.1	nt	nt	nt
COc1ccc(C(=O)CSc2nnc(CNC(=O)c3ccco3)n2C)cc1	0.69	i	2	1	0.9	-2.8	1.5	nt	-6
CC1CCc2sc(C(=O)NC3CCN(Cc4ccccc4)CC3)cc2C1 (stereo not drawn)	0.64	i	nt	nt	nt	-6.2	0.9	-3	16
COc1ccc(C2=NN(C(=O)c3ccco3)C(c3cccs3)C2)cc1OC (stereo not drawn)	nt	i	-51	-68	-9.7	2.1	nt	nt	nt
Cc1[nH]c2ccc(-c3n[nH]c(=S)n3Cc3ccccc3)cc2c1C	0.69	i	-54	-64	-16	3.0	1.4	?	-1
Cc1cc(C)n(-c2cc(C(=O)O)cc(C(=O)O)c2)n1	0.69	i	18	10	0.8	0.8	-1.9	-6	-1
COc1cc(C2NC(=O)NC(O)(C(F)(F)F)C2C(=O)c2cccs2)ccc1O (stereo not drawn)	0.7	i	5	5	-3.9	0.1	2.5	43	4
Cc1c(C#N)c(NC(=O)c2cccc(Cl)c2)n(Cc2ccccc2)c1C	0.79	nt	nt	nt	nt	-2.2	-7.7	8	10
O=C1Nc2ccc(F)cc2C12Nc1ccccc1-c1nnc(SCc3ccccc3Cl)nc1O2 (stereo not drawn)	0.71	nt	nt	nt	nt	1.5	2.4	-9	-3
O=S1(=O)N=C(N/N=C/c2ccco2)c2ccccc21	nt	i	20	16	12	-7.7	nt	0	-7
CCc1ccc(Nc2nnc(SCC(=O)NC(=O)c3cccn3C)s2)cc1	0.77	i	10	16	11	3.8	4.5	7	5
